Source: PubChem
eIF4H inh: inhibitors of RNA binding by human eIF4H. Q15056. eIF4H fluorescence polarization binding assay. inhibition, % at 35 µM. 0.94% of 290,000 active;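 active = 50% or more with normal probe brightness, or confirmed in later tests; inconclusive = above 50% with abnormal brightness, or retests that disagree; inactive = below 50% or failed in later tests; about a fifth of its hits are not listed in these tables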;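 also: calls also rest on retests at 20 µM and on dose response follow-up; 0% = protein and probe with vehicle and 100% = probe without protein; strong numbers were not always called active; many hits fall short of the cut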
MT1-MMP act inh: blocks activation of human MT1-MMP; P50281; 0.061% of 360,000 active; GFP/RFP ratio change, % at 20 µM; HT1080 RFP-PRO-GFP cells, GFP/RFP ratio fluorescence, overnight; percent of plate control window, DMSO zero;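 active = GFP/RFP ratio change of at least 30% with cell ATP level not reduced by more than half and red fluorescence within 50% of control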; also: strong numbers were not always called active
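Test system: HT1080 RFP-PRO-GFP cells; Benchmarks: DMSO and RFP-L50D-GFP cell wells; Timing: cells overnight before dosing, compound overnight, 37 °C, 5% CO2; Compound: one 20 µM compound dose with 1% DMSO; Read-out: GFP/RFP fluorescence ratio.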
CSC inhib: cancer stem cell inhibition; cancer stem cell-like cells viability, luminescence; 1.1% of 300,000 active; inhibition, % at 7.5 µM;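 active = mean at 75% or more and at least half the replicates too; inconclusive = mean and replicates disagree; tested in HMLE shEcad cells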;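 also: 0% = median of negative and 100% = median of positive control wells; the first replicate is given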
PABP polyA inh: blocks human PABP binding to poly(A) RNA | P11940 | fluorescence polarization | 1% of 290,000 active | inhibition, % at 35 µM;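 active = 50% or more with normal probe brightness, or confirmed in later tests; inconclusive = above 50% with abnormal brightness, or retests that disagree; inactive = below 50% or failed in later tests; about a fifth of its hits are not listed in these tables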;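 also: calls also rest on retests at 20 µM and on dose response follow-up; controls were probe without protein and protein plus probe with vehicle; some compounds called inactive have numbers as strong as hits; many hits fall short of the cut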
Target sequence (P11940 whole entry, looked up): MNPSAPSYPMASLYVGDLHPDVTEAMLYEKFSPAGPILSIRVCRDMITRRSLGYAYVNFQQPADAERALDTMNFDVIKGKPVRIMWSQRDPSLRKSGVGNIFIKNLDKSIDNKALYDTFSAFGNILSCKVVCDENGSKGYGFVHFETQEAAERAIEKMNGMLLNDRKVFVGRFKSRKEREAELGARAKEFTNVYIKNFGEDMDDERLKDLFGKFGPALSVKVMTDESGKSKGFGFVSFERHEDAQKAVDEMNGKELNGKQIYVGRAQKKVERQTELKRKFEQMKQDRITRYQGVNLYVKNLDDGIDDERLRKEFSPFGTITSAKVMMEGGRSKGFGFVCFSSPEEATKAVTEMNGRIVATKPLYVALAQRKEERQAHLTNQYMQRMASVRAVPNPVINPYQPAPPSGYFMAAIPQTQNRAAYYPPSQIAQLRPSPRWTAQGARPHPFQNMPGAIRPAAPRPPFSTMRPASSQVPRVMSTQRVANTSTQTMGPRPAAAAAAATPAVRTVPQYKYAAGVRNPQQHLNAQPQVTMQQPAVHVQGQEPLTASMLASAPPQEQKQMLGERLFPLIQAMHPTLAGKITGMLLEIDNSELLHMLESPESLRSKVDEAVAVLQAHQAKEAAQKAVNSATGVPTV
Yeast UUG start: modulators of start codon recognition fidelity in yeast | AID 602363 | S. cerevisiae UUG-firefly luciferase reporter, luminescence/redox ratio | activity score, % at 18.7 µM | 0.13% of 350,000 active;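 active = replicate mean at a twofold rise or more, about +100% in these data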;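 also: firefly luciferase made from a UUG start codon reports start codon fidelity; reporter light over untreated wells divided by growth signal over untreated wells; some hits fall short of that in this replicate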
Env fusion inh: blocks HIV Env-driven cell-cell fusion | HeLa-JRFL Env/CEM21 cell fusion, luciferase | inhibition, % at 12.3 µM | 1.1% of 360,000 active | AID 651610;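 active = mean replicate inhibition score of at least 50 and every replicate individually at or above 50; inconclusive = only one of the two criteria met; inactive = mean below 50 and not all replicates reaching 50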;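 also: 0% = plate neutral controls and 100% = maraviroc near 300 nM; one replicate is shown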
Rce1 inh: inhibitors of yeast Ras-converting enzyme; Q03530; yeast membranes, quenched prenylated peptide cleavage fluorescence; calls only; 0.27% of 290,000 active; AID 2563;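 active = fall in fluorescence gain of 50% or more versus controls, with final raw signal at or below 3038400; inconclusive = same 50% fall but final raw signal above 3038400; inactive = fall in fluorescence gain under 50%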;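 also: plate controls were neutral control wells for no effect and wells lacking membranes for full effect; tested at 10 µM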
eIF4H inh retest: recorded beside eIF4H inh, whose call it bears; inhibition, %; compound at 20 µM; confirmation average;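 mean of two retest wells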
PABP polyA inh retest: also measured in PABP polyA inh; calls as there; inhibition, %; compound at 20 µM; confirmation repeats;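 mean of two retest wells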
MT1-MMP act inh RFP: recorded beside MT1-MMP act inh, whose call it bears; RFP signal change, %; measured here: RFP expression control read;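 0 = vehicle wells; hits needed this value within 50% of zero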
* = called active by the depositor; i = inactive; u = inconclusive; x = no result given. A portion of the library, so the mix of outcomes need not match the whole.

SMILES	eIF4H inh	MT1-MMP act inh	MT1-MMP act inh RFP	CSC inhib	PABP polyA inh	Yeast UUG start	Env fusion inh	Rce1 inh	others
O=C(Nc1nnc(-c2ccncc2)s1)C1CCCO1 (stereo unspecified)	-2	-1	3	-2	4	-14	-23	i
CCOC(=O)C1=C(C)OC(N)=C(C#N)C1c1cccs1 (stereo unspecified)	12	-2	1	-5	0	x	-6	i
COc1ccc(OC)c(NC(=O)Cn2c(CCC(=O)O)ccc2-c2ccccc2)c1	-10	0	2	-6	-4	x	-14	i
CCOC(=O)Cc1csc(NC(=O)c2c(O)c3c(n(CC(C)C)c2=O)CCCC3)n1	2	5	-1	-2	-5	x	18	i
CCc1nc(C)ccc1OCC(=O)NCCCN(C)C	6	6	-5	x	32	-12	-28	i
CCOC(=O)C1CCN(S(=O)(=O)c2ccc(C)c(C(=O)NC3CCCCC3)c2)CC1	3	-2	-4	-6	11	-18	-7	i
CCCCC(NC(=O)CCc1c(C)c2cc3c4c(oc3c(C)c2oc1=O)CCCC4)C(=O)O (stereo unspecified)	-2	-1	5	8	3	-12	4	i
CCOC(=O)N1CCN(CC(O)COCc2ccc(OC)c(OC)c2)CC1 (stereo unspecified)	-4	3	5	-15	-9	x	-13	i
O=C(Nc1cccn(Cc2c(Cl)cccc2Cl)c1=O)C1CC1	-9	6	2	-5	-13	x	4	i
Cn1cc(C(=O)NCc2ccc(Cl)cc2)c(=O)c2cc(S(=O)(=O)N3CCOCC3)ccc21	0	4	1	18	-9	-19	-11	i
Cc1cnn(C(=S)NCc2ccco2)c1	20	-3	6	-11	29	-14	-147	i
c1coc(-c2nc3nc4ccccc4nc3n2-c2ccc3c(c2)OCCO3)c1	-6	-1	2	x	12	-10	-334	x
C1CCC2(CC1)OCC1(CO2)COC2(CCCCC2)OC1	-5	-4	-2	-18	-7	0	-28	i
CCN(CC)CCC/C(=N\O)C(O)(c1ccccc1)c1ccccc1	-1	3	5	-7	3	x	1	i
COc1ccc(CNC(=O)C2CCC(CNS(=O)(=O)c3cccc4cccnc34)CC2)cc1 (stereo unspecified)	0	5	-4	5	5	-3	-8	i

Compounds above containing a Cl atom (two):
SMILES	eIF4H inh	MT1-MMP act inh	MT1-MMP act inh RFP	CSC inhib	PABP polyA inh	Yeast UUG start	Env fusion inh	Rce1 inh	others
O=C(Nc1cccn(Cc2c(Cl)cccc2Cl)c1=O)C1CC1	-9	6	2	-5	-13	x	4	i
Cn1cc(C(=O)NCc2ccc(Cl)cc2)c(=O)c2cc(S(=O)(=O)N3CCOCC3)ccc21	0	4	1	18	-9	-19	-11	i

The results go on:
SMILES	eIF4H inh	MT1-MMP act inh	MT1-MMP act inh RFP	CSC inhib	PABP polyA inh	Yeast UUG start	Env fusion inh	Rce1 inh	others
COc1cc(OC)nc(NC(=O)CCl)n1	-3	0	6	-19	24	2	-65	i
O=C(O)CCc1cccnc1	16	3	10	3	2	-11	7	i
COCCNC(=O)c1cnn2c(C(F)(F)F)cc(-c3ccc4c(c3)OCO4)nc12	-1	1	4	-8	-10	-1	-17	i
Cc1cc(C(=O)CSc2nnc(-c3ccco3)o2)c(C)n1Cc1ccco1	65*	-2	-6	-11	36*	-12	x	i	eIF4H inh retest=96*;PABP polyA inh retest=96*
CNC(=O)C(=O)NCC1OCCCN1S(=O)(=O)c1ccc2c(c1)OCCO2 (stereo unspecified)	-1	-4	-2	11	4	-11	-19	i
CC1=NN(c2ccc(F)cc2)C(=O)C1C(c1cccc(O)c1)c1c(C)[nH]n(-c2ccc(F)cc2)c1=O (stereo unspecified)	-4	6	3	-16	-5	x	x	i
Clc1ccccc1-c1nc(/C=N/N2CCOCC2)c2ccccn12	10	-6	0	-5	u	x	-3	i
CN(NS(=O)(=O)c1ccc([N+](=O)[O-])cc1)c1ccccc1	x	3	5	x	x	-16	2	x
Cc1ccccc1OCCNC(=O)/C=C/c1ccc([N+](=O)[O-])cc1	-6	3	8	-6	-1	x	-82	i
O=C(CCNS(=O)(=O)c1ccc(Br)cc1)N1CCCCCCC1	x	-4	-2	-12	x	x	-12	i
Nc1nc(COC(=O)C2CC(=O)N(Cc3ccccc3)C2)nc(Nc2ccccc2)n1 (stereo unspecified)	x	5	8	x	x	-9	1	x
CCN(CC(=O)Nc1ccc(NC(C)=O)cc1)C(=O)c1cc(S(=O)(=O)N2CCCCCC2)ccc1OC	x	-1	-1	0	x	x	-21	i
CN(C)/C=C(/C(=O)c1ccc(F)cc1)S(=O)(=O)c1ccc(F)cc1	12	3	2	-12	0	x	11	i
COc1ccc(-c2ccc3c(c2)S(=O)(=O)c2cccc(C(=O)N4CCN(c5ccc(Cl)cn5)CC4)c2C3=O)cc1OC	x	-6	-16	x	x	0	25	x
O=C(Nc1ccc([N+](=O)[O-])cc1)c1cc(-c2ccccn2)nc2c(Cl)cccc12	4	-3	-1	1	-9	x	4	i
CCCCNC(=S)N(C)/N=C/c1ccc(OCc2ccc(C(=O)OC)cc2)c(OC)c1	3	3	-7	20	61*	x	x	i	eIF4H inh retest=24;PABP polyA inh retest=65*
Cc1cc(NC(=O)Nc2ccc(Cl)cc2)n(C(C)(C)C)n1	-5	7	5	7	12	6	-7	i
CC(C)Oc1ccccc1OCCN(C)C	12	-2	1	-3	11	x	-20	i
O=C(NN1CCCCCC1)c1ccccc1F	x	-2	-2	x	x	-9	-6	x
COc1ccccc1C(CNC(=O)CNC(=O)c1cccc(Cl)c1)N1CCCC1 (stereo unspecified)	x	-7	1	x	x	-4	1	x
Cc1[nH]c2ccccc2c1C(=O)CN1CCC2(CC1)OCCO2	-10	-4	2	-10	4	-8	x	i
CCn1c(COc2ccc(C)cc2)nnc1SCC(=O)Nc1cc(OC)ccc1OC	-5	6	-6	8	0	-15	58*	i
O=C(/C=C\Nc1ccccn1)c1ccccc1	-10	-1	2	-12	10	-21	x	i
Cn1nccc1C(=O)Nn1cnnc1	-11	-2	7	-10	2	-5	x	i
COc1ccc(C(=O)Nn2cnnc2)c(OC)c1	0	3	0	-17	-3	-24	-92	i
COc1ccc(C2=NOC(C(=O)NC(C)(C)C)C2)cc1 (stereo unspecified)	-12	-3	1	x	0	11	-16	i
COc1ccc(CN2CCN(CC(O)Cn3c4ccccc4c4ccccc43)CC2)cc1 (stereo unspecified)	-7	-3	-12	43	13	x	20	i
Cc1ccccc1C(=O)NC1CC2CCCC(C1)N2Cc1ccc(Cl)cc1 (stereo unspecified)	4	4	4	15	0	-2	7	i
Cc1cc(NC(=O)CSc2ccc3nnc(-c4ccccc4)n3n2)no1	-2	0	2	-12	1	7	x	i
CCn1c(SCC(=O)Nc2ccc(OCc3ccccc3)cc2)nnc1-c1ccco1	-11	-1	-8	30	0	-10	4	i
Nc1nc(-c2ccccc2)c(-c2ccccc2)n1N	54	-5	2	-7	37*	x	6	i	eIF4H inh retest=1;PABP polyA inh retest=60*
COc1cccc(CN2CC(C(=O)NC3(c4ccccc4)CC3)CCC2=O)c1 (stereo unspecified)	-10	-1	2	-11	17	-2	-272	i
O=C(O)c1cnn2c1NC(c1ccc(F)cc1)CC2C(F)(F)F (stereo unspecified)	-10	8	3	3	1	-14	11	i
CCN1CCN(C(=O)CCc2nc3ccccc3c(=O)[nH]2)CC1	-1	6	4	11	2	-14	-9	i
O=S(=O)(Nc1cccc(-c2cn3cccnc3n2)c1)c1ccc(-c2ccccc2)cc1	-2	4	-7	16	3	545*	x	i
O=C(COC(=O)c1cccnc1Cl)NCC1CCCO1 (stereo unspecified)	-8	0	1	-6	-6	-14	-2	i
O=C(NCCN1CCOCC1)c1cc(-c2cccs2)nc2ccccc12	102	-1	-1	2	2	-7	8	i	eIF4H inh retest=-6;PABP polyA inh retest=1
C/C(=N\NC(=O)c1ccc(N/N=C(\C)c2ccc(O)cc2)cc1)c1ccc(O)cc1	5	4	7	40	-2	x	1	i
COc1ccc([C@H]2CC(=O)C=C(C#CC(C)(C)C)C2)cc1	x	1	-2	0	x	-21	18	x
Cc1cc(NC(=O)CSc2nnc(-c3ccco3)n2Cc2ccccc2)no1	-5	-1	1	-1	15	-10	x	i
COc1cccc(CNC(=O)CSc2ccc(-c3ccccn3)nn2)c1	-3	-5	-8	-5	-16	x	-2	i
CC(C)NC(=O)NS(=O)(=O)c1cnccc1NC1CC2CCC1C2 (stereo unspecified)	8	3	6	0	-10	5	x	i
Cc1ccccc1Cn1c(O)c(N=NC(=S)Nc2ccccc2F)c2ccccc21	14	5	-1	2	8	x	32	i
COC(=O)c1cc(OC)c(OC)cc1NC(=S)N1CCCCC1	2	-1	0	x	-2	-45	x	i
CCn1c(C)c(CS(=O)(=O)c2ccccc2)[nH]c1=O	0	-2	-4	4	-2	x	14	i

By substructure: the entries above containing a CF3 group
SMILES	eIF4H inh	MT1-MMP act inh	MT1-MMP act inh RFP	CSC inhib	PABP polyA inh	Yeast UUG start	Env fusion inh	Rce1 inh	others
COCCNC(=O)c1cnn2c(C(F)(F)F)cc(-c3ccc4c(c3)OCO4)nc12	-1	1	4	-8	-10	-1	-17	i
O=C(O)c1cnn2c1NC(c1ccc(F)cc1)CC2C(F)(F)F (stereo unspecified)	-10	8	3	3	1	-14	11	i

More structures follow.
SMILES	eIF4H inh	MT1-MMP act inh	MT1-MMP act inh RFP	CSC inhib	PABP polyA inh	Yeast UUG start	Env fusion inh	Rce1 inh	others
Cc1ccc(C(=O)Nc2c(N)nc(SCC(=O)NCC3CCCO3)[nH]c2=O)cc1 (stereo unspecified)	4	-3	3	-8	8	-12	x	i
Cc1nonc1C(=O)N/N=C/c1ccc([N+](=O)[O-])o1	89*	-11	-9	-6	32*	3	12	i	eIF4H inh retest=50*;PABP polyA inh retest=56*
CCC(C(=O)NCc1ccncc1)c1ccccc1 (stereo unspecified)	-11	1	0	-20	-1	-17	30	i
COc1ccc(NC(=O)C2CCN(S(=O)(=O)c3ccc(N4CCCC4=O)cc3)CC2)c(OC)c1	-5	-3	-8	1	-5	-13	-3	i
CCC1CCCCN1C(=O)COc1cc(=O)n(C)c2ccccc12 (stereo unspecified)	-1	-1	1	5	6	-6	-23	i
CC(O)(c1ccc(F)c(F)c1)c1nc(-c2ccc(F)c(Cl)c2)cs1 (stereo unspecified)	x	2	-1	x	x	-17	10	x
COC(=O)CSc1nnc(SCc2ccc(Cl)cc2)s1	-4	1	0	-11	-6	-3	-13	i
Cc1cccc(CCNC(=O)C2CCC(=O)N2Cc2ccc(F)cc2)c1 (stereo unspecified)	-1	7	4	-2	1	6	x	i
COc1cc(C(=O)NC2CC3CCCC(C2)N3CC(=O)Nc2ccccc2)cc(OC)c1OC (stereo unspecified)	3	3	-1	-18	-1	-8	-37	i
CN(C)S(=O)(=O)c1ccc(N2CCCC2)c(C(=O)NCCc2ccc(F)cc2)c1	-11	2	1	-8	-9	-18	75*	i
O=C(NCCc1c[nH]c2ccccc12)c1cc(S(=O)(=O)N2CCCCC2)ccc1N1CCOCC1	-3	-2	0	-3	-9	13	x	i
O=C(O)c1ccc(CSCc2ccccc2F)o1	-4	2	4	-9	14	-7	x	i
Cc1cc(NC(=O)COC(=O)CCCOc2ccc(Cl)cc2C)no1	-11	-1	0	-20	-1	-14	-45	i
C=CC[C@H](CC(=O)NCCO)C(=O)N[C@H](COC(=O)[C@H](CC=C)CC(=O)OC(C)(C)C)c1ccccc1	x	10	6	-4	x	35	-10	x
Cn1c(SCC(=O)NCc2ccco2)nc2ccccc2c1=O	0	1	-1	10	5	-5	-13	i
Cc1cc(S(=O)(=O)N2CCCC2)ccc1OCC(=O)NCc1ccccn1	-1	2	-2	-8	4	1	-7	i
